# Bead autofluor = counter-screen for toxin protease inhibitors: compound fluorescence; compound autofluorescence counterscreen, microsphere flow cytometry; stronger effect = higher value; fluorescence intensity (test concentration not listed); 3.1% of 360,000 active;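 active means at least 3 SD above the mean of all compounds, about 16000 in these data; inconclusive means too few beads counted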;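 further: 100 nL of 1 mM stock went into each well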
# PrP UTR inh = inhibition of PrP 5' UTR reporter expression. cell-based PrP 5' UTR mRNA reporter, plate reader. inhibition, % (no concentration beside the values). 0.35% of 340,000 active;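 active means every replicate at 50% or more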;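 further: 0 = median of the neutral control wells; tested in H4 reporter cells; numbers are from one replicate; inactives centre near -14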
# BJeLR lethal = BJeLR cell viability loss; inhibition, % (test concentration not listed); 0.17% of 300,000 active; BJeLR (HRASV12) viability, CellTiter-Glo ATP luminescence, 48 h; reference of the scale not given here;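 active means replicate mean above 50%; inconclusive means above 50% but judged a plate artefact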;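 further: 50 nL library stock added to about 25 µL; numbers are from one replicate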
# Mtb hypoxia rep = inhibitors of hypoxia-regulated fluorescent reporter in Mycobacterium tuberculosis. M. tuberculosis hypoxia-regulated fluorescent reporter, fluorescence. fluorescence inhibition, % (no concentration beside the values). 0.1% of 300,000 active;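 active means 35 to 45% if threefold the growth effect, above 45% if 1.5-fold the growth effect; inactive means the rest, general growth blockers included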;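 further: wells of about 50 µL received 100 nL stock; 0% = vehicle wells and 100% = reference inhibitor wells; whole bacteria with a GFP reporter of the hypoxia response; strong numbers were not always called active; many hits fall short of the cut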
# Sa RN4220 lethal = S. aureus RN4220 growth inhibition. 0.33% of 330,000 active. OD600, 16 h. inhibition, % (no concentration beside the values);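 active means z-score of -3 or lower and OD600 up to 0.18 on both plates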;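 further: plate controls were untreated cells for no effect and reference antibiotic for full effect; stock transfer was 100 nL into about 80 µL; one replicate is shown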
# ugtP null kill = growth inhibition of S. aureus ugtP deletion strain. AID 1259309. S. aureus RN4220 ugtP deletion, OD600 growth, 16 h; some inactives read as strong as hits. 0.54% of 330,000 active. growth inhibition, % (test concentration not listed);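 active means z-score under -3 and OD600 up to 0.15 on both plates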;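 further: plate controls were untreated wells for no effect and antibiotic for full effect; wells of about 80 µL received 100 nL stock; the first replicate is given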
# Mtb hypoxia rep growth = also measured in Mtb hypoxia rep; calls as there; growth inhibition, %; measured here: M. tuberculosis growth (absorbance);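 0% = vehicle and 100% = reference antibiotic; read after six days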
# Active calls of the source: *; ? = inconclusive; / = not tested or not shown.
1	COc1ccccc1N(C)S(=O)(=O)c1ccc(C(=O)Nc2nc(C)c(C(C)=O)s2)cc1
2	S=C(Nc1ccc2c(c1)OCO2)Nc1ccccc1Cl
3	COc1ccc(CNC(=O)COc2ccc(S(=O)(=O)N3CCOCC3)cc2C)cc1
4	COc1cccc(-n2c(=O)c3sccc3n(CC(=O)NC3CCCC3)c2=O)c1
5	COc1ccc(NC(=O)CC2C(=O)N(c3ccccc3)C(=O)N2CCc2cccs2)cc1 (configuration not stated)
6	S=c1[nH]nc(C2CCCCC2)n1N=Cc1cccc(Br)c1
7	Cc1cc(C2C(=O)CC(=O)CC2c2ccccc2)on1 (configuration not stated)
8	CC1=C(CC(=O)c2ccc(Cl)cc2)C(=O)c2ccccc2C1=O

assay / compound	1	2	3	4	5	6	7	8
Bead autofluor	4689	4438	5795	3524	9006	/	4339	15968
PrP UTR inh	5	-32	-32	-11	-18	/	-15	-39
BJeLR lethal	/	4	3	-5	14	/	-11	-12
Mtb hypoxia rep	3	14	-6	2	5	11	/	-2
Mtb hypoxia rep growth	1	1	2	9	10	5	/	14
Sa RN4220 lethal	8.1	2.1	-4.5	0.2	1.9	1.9	1.9	23
ugtP null kill	-4	2	4	14	10	-2	5	12

9	CC(Sc1ccc(Cl)cc1)C(=O)NNC(=O)c1csc(N2CCOCC2)n1 (configuration not stated)
10	OCCC1CN(C/C(Cl)=C/c2ccccc2)CCN1C1CCCC1 (configuration not stated)
11	Cc1cccc(Oc2ccc(NS(=O)(=O)c3ccc(C)c(C(=O)O)c3)cc2)c1
12	CC(=O)N1Cc2ccccc2C(C)CC12CCCC2 (configuration not stated)
13	O=C1/C(=C\c2cccs2)N=C(c2cccs2)N1Nc1ccccc1
14	COC1(OC)C(/C=C/c2ccc(C)cc2)C(C#N)(C#N)C1(OC)OC (configuration not stated)
15	CC1Cc2nc(SCC(=O)Nc3nccs3)n(Cc3ccccc3)c(=O)c2S1 (configuration not stated)
16	O=C(NN=Cc1ccc(Br)s1)c1ccco1

assay / compound	9	10	11	12	13	14	15	16
Bead autofluor	4245	3554	14838	6851	5432	7132	4258	/
PrP UTR inh	-3	-8	/	-2	-21	-2	3	/
BJeLR lethal	-11	-2	/	11	-1	4	-2	/
Mtb hypoxia rep	6	-12	11	18	16	/	8	8
Mtb hypoxia rep growth	3	-8	3	13	6	/	9	5
Sa RN4220 lethal	-0.1	-0.1	2.2	1.3	-2.1	/	4.7	3.4
ugtP null kill	-5	7	2	4	-12	/	1	-1

17	O=C(CSc1nnc(NC2CCCCC2)s1)NC1CCS(=O)(=O)C1 (configuration not stated)
18	O=C1C(Cl)=C(Nc2ccccc2O)C(=O)N1CCc1ccccc1
19	COC(=O)C1CC1C(NC(=O)C1CC1C(NC(=O)OCc1ccccc1)c1ccccc1)c1ccccc1 (configuration not stated)
20	CN(C)CCOC(=O)C12CC3CC(CC(C3)C1)C2
21	Cc1cc(=O)cc(C)n1-c1ccccc1N
22	COc1cccc(CNC(=O)C(=O)NCCC2CCCCN2S(=O)(=O)c2ccc(C)cc2)c1 (configuration not stated)
23	CCCn1c(=O)n(C)c(=O)c2c(SCC(=O)NCc3ccco3)nc(C3CC3)nc21
24	COc1cc(N/C=C2\CC(=O)NC(C)=C2C#N)cc(OC)c1OC

assay / compound	17	18	19	20	21	22	23	24
Bead autofluor	?	2661	/	2632	3534	4810	2597	3976
PrP UTR inh	5	-31	/	-41	-93	-13	-5	-18
BJeLR lethal	9	6	/	6	-4	-2	-1	-5
Mtb hypoxia rep	-1	5	1	/	-4	14	12	/
Mtb hypoxia rep growth	0	0	3	/	4	2	12	/
Sa RN4220 lethal	1.3	3.2	3.4	-4.6	0.3	0.9	18	/
ugtP null kill	-3	1	6	3	1	8	1	/

25	CCCCc1c(O)nc2ccccn2c1=O
26	COc1cccc(NC(=S)N2CCC(NC(=O)C3CCCCC3)CC2)c1
27	COc1ccc(C)cc1NC(=O)CSc1nnc(CC(=O)Nc2ccccc2F)n1C
28	CCOc1ccc(OCCCCOc2ccccc2C(C)=O)cc1
29	O=C(Nc1nc(=O)c2ccccc2s1)c1ccc(Cl)cc1
30	COc1cc2c(cc1OC)C1(CCCC1)CNC2C (configuration not stated)
31	Cc1nnc(NC(=O)c2ccc3ccccc3n2)s1
32	CCOc1ccc2c(=O)c(-c3ccc4c(c3)OCCCO4)c(C)oc2c1

assay / compound	25	26	27	28	29	30	31	32
Bead autofluor	2561	5668	4516	2570	3598	7673	4589	2523
PrP UTR inh	-18	-12	-6	-5	-60	-33	-55	-22
BJeLR lethal	16	-2	9	8	7	-1	4	-2
Mtb hypoxia rep	-4	4	-9	1	/	1	-4	2
Mtb hypoxia rep growth	-7	7	2	8	/	14	3	2
Sa RN4220 lethal	7.8	2.1	0.4	-4.1	-1.9	-2.6	1.1	-1.2
ugtP null kill	11	1	-2	-8	4	-4	1	4

33	CCOc1ccccc1N(CC(=O)N1CCOCC1)S(=O)(=O)c1ccccc1
34	Cc1csc(NC(=O)c2ccc(S(C)(=O)=O)cc2)n1
35	COc1cccc(CC(NC(C)=O)C(=O)NC2CCN(c3nnnn3-c3ccccc3)CC2)c1OC (configuration not stated)
36	CCOC(=O)C1(CCc2ccccc2)CCN(C2CCSCC2)CC1
37	CC(C)C(=O)Nc1ccc(C(=O)Nc2ccc(S(=O)(=O)N3CCOCC3)cc2)cc1
38	Cc1ccc(C=Nn2c(=O)c(C(C)(C)C)nn3cnnc23)cc1
39	CCOC(=O)CSc1nnc(CNC(=O)c2ccco2)n1-c1ccc(F)cc1
40	O=C(COc1ccc(Cl)cc1)NCC(=O)NN=Cc1cccs1

assay / compound	33	34	35	36	37	38	39	40
Bead autofluor	3790	3865	4680	5525	3236	/	8105	/
PrP UTR inh	-12	-43	-37	-8	-12	/	-10	/
BJeLR lethal	-1	0	-1	3	-1	/	-3	/
Mtb hypoxia rep	6	-5	1	4	-6	-4	11	5
Mtb hypoxia rep growth	4	5	-2	3	8	10	12	12
Sa RN4220 lethal	5.9	11	0.5	-0.7	4.6	2.0	3.6	-3.0
ugtP null kill	7	3	-1	3	9	3	7	3

# Reformatted as tab-separated lines: two of the compounds above
no.	molecule	Bead autofluor	PrP UTR inh	BJeLR lethal	Mtb hypoxia rep	Mtb hypoxia rep growth	Sa RN4220 lethal	ugtP null kill
38	Cc1ccc(C=Nn2c(=O)c(C(C)(C)C)nn3cnnc23)cc1	/	/	/	-4	10	2.0	3
17	O=C(CSc1nnc(NC2CCCCC2)s1)NC1CCS(=O)(=O)C1 (configuration not stated)	?	5	9	-1	0	1.3	-3

# Further results
41	Cc1cccc(-n2c(SCC(=O)N(C)C3CCS(=O)(=O)C3)nc3ccccc3c2=O)c1C (configuration not stated)
42	COC(=O)c1cccc2c1-c1ccccc1/C2=N\NC(N)=O
43	O=C(Nc1cc(SCCO)cc([N+](=O)[O-])c1)c1ccc(Br)o1
44	COC(=O)CSC1=C(C#N)C(c2ccc(C(C)C)cc2)CC(=O)N1 (configuration not stated)
45	COc1ccc(C(=O)NCC(=O)OCC(=O)Nc2cc([N+](=O)[O-])ccc2F)cc1
46	O=C(COC(=O)C1CC(=O)N(c2ccc3c(c2)OCCO3)C1)Nc1ccc2c(c1)CCC2 (configuration not stated)
47	O=C(Cc1ccccc1)NCC(=O)N/N=C/c1ccc(Cl)cc1
48	O=C(c1ccc(S(=O)(=O)N2CCOCC2)cc1)N1CCN(C2=NS(=O)(=O)c3ccccc32)CC1

assay / compound	41	42	43	44	45	46	47	48
Bead autofluor	5350	3886	2195	6020	3862	2592	3252	7811
PrP UTR inh	-26	5	-5	-26	-55	-9	0	-26
BJeLR lethal	-1	2	-2	-6	-5	3	3	-3
Mtb hypoxia rep	3	/	-2	2	3	/	/	4
Mtb hypoxia rep growth	1	/	-3	12	-8	/	/	9
Sa RN4220 lethal	4.1	/	2.6	1.9	10	-1.4	/	1.2
ugtP null kill	9	/	-13	9	1	53	/	4

49	CCCCNC(=O)N1CCN(Cc2ccc(F)cc2)CC1
50	O=C(CCc1nnc(CCCCc2ccccc2)o1)N1CCCCC1CCO (configuration not stated)
51	Cc1cc(C)nc(Nc2nc(-c3ccccc3)cs2)n1
52	CN(C(=O)Cc1ccccc1)n1cnnc1
53	CN1CCN(c2ccccc2NC(=O)c2ccc(F)cc2)CC1
54	COc1cc2cc(CN(CCc3cccc(C)c3)C(=S)NCCCN(C)C)c(=O)[nH]c2cc1OC
55	CCOCCCNCC(=O)Nc1ccccc1N1CCOCC1
56	CC(C)(C)c1ccccc1NC(=O)c1ccco1

assay / compound	49	50	51	52	53	54	55	56
Bead autofluor	2266	4197	3335	4210	4753	2280	13474	7809
PrP UTR inh	-26	-12	0	-4	-16	-39	/	-22
BJeLR lethal	5	13	4	10	-4	8	/	-4
Mtb hypoxia rep	23	-2	6	2	1	-1	-1	-1
Mtb hypoxia rep growth	17	-6	12	2	-2	14	9	-5
Sa RN4220 lethal	4.2	3.5	-1.6	5.2	0.9	-1.7	-0.1	4.9
ugtP null kill	4	4	3	1	-6	-5	-1	4

57	O=C(OCCNC(=O)c1ccc2ccccc2n1)c1cccnc1
58	COc1ccc(NC(=O)CN(c2ccc(C)cc2)S(=O)(=O)c2c(C)nn(C)c2C)cc1
59	COc1cc2cc(C(=O)NN=Cc3cccc(OC)c3OC)[nH]c2cc1OC
60	CCCCCOC(=O)Cn1c(SCC(=O)Nc2ccccc2)nc2c1c(=O)[nH]c(=O)n2C
61	Cc1cccc(C)c1NC(=O)COC(=O)c1ccccc1Nc1ccccc1
62	Cc1ccccc1N(CC(=O)N/N=C/c1ccc(Cl)cc1)C(=O)c1ccccc1
63	CCN(CC(=O)Nc1ccc2c(c1)OCCO2)Cc1nc2cc(Cl)ccc2c(=O)[nH]1
64	COCCCC1CCN(C(=O)C2CCC(=O)N(CC3CCCCC3)C2)CC1 (configuration not stated)

assay / compound	57	58	59	60	61	62	63	64
Bead autofluor	8032	4489	/	2454	2446	6531	/	5930
PrP UTR inh	-24	-5	/	1	-13	-18	-3	-5
BJeLR lethal	-1	8	/	-6	2	-3	/	-1
Mtb hypoxia rep	-9	3	4	2	5	/	4	6
Mtb hypoxia rep growth	1	0	6	9	6	/	-1	9
Sa RN4220 lethal	7.2	10	-1.2	6.8	2.7	/	1.4	-3.4
ugtP null kill	5	22	14	3	0	/	-2	10

65	CC(=NNC(=O)c1cccc(NN=C(C)c2cc(O)ccc2O)c1)c1cc(O)ccc1O
66	COc1ccc(NC(=O)c2ccc3ncsc3c2)c2ccccc12
67	CCOC(=O)C(/C(C)=N/NC(=O)c1ccccc1[N+](=O)[O-])C(C)C (configuration not stated)
68	CCCn1c(-c2cccc([N+](=O)[O-])c2)nc2c1c(=O)[nH]c(=O)n2Cc1ccccc1
69	CN1CCN(CC(=O)Nc2c(C(=O)c3ccccc3)oc3ccccc23)CC1
70	COc1ccc(C(=O)CC(=O)C(=O)Nc2ccc(C)c(Cl)c2)cc1
71	O=C(CN1C(=O)C(=O)c2ccccc21)NC1CCCCC1
72	CCN(Cc1ccccc1)C(=O)c1ccc(C)c(S(=O)(=O)N2CCCCC2)c1

assay / compound	65	66	67	68	69	70	71	72
Bead autofluor	/	6281	10922	2603	5786	2804	21596*	?
PrP UTR inh	/	-33	-26	-3	-8	/	-9	-13
BJeLR lethal	/	-1	6	3	7	-2	-8	/
Mtb hypoxia rep	3	7	/	6	7	3	-3	12
Mtb hypoxia rep growth	1	-4	/	7	0	2	12	9
Sa RN4220 lethal	16	13	/	3.6	4.8	78	0.4	6.0
ugtP null kill	-8	5	/	-1	2	97*	-12	11

# Next part (2 carried over from the part before).
71	O=C(CN1C(=O)C(=O)c2ccccc21)NC1CCCCC1
72	CCN(Cc1ccccc1)C(=O)c1ccc(C)c(S(=O)(=O)N2CCCCC2)c1
73	Cn1cnnc1SCC(=O)NC1CC1
74	CN1CCN(/N=C2/C(=O)Nc3ccc([N+](=O)[O-])cc32)CC1
75	CSc1ccccc1C(=O)Nc1ccc2c(c1)OCCO2
76	O=[N+]([O-])c1cccc(-c2cc(C(F)(F)F)n3nc(-c4ccccc4)cc3n2)c1
77	Nc1n[nH]c(N)c1N=Nc1ccc(Cl)cc1

assay / compound	71	72	73	74	75	76	77
Bead autofluor	21596*	?	3866	3982	2587	4395	2295
PrP UTR inh	-9	-13	-19	2	-18	-15	-26
BJeLR lethal	-8	/	/	2	5	-8	4
Mtb hypoxia rep	-3	12	16	/	/	6	6
Mtb hypoxia rep growth	12	9	6	/	/	9	3
Sa RN4220 lethal	0.4	6.0	4.0	/	-1.7	1.8	3.6
ugtP null kill	-12	11	-4	/	7	2	0

# Compound activity (PubChem BioAssay)
